Sfp inh: Sfp phosphopantetheinyl transferase inhibition. Q9F4F7. Biochemical Sfp PPTase activity, qHTS. Potency, µM, without a hit: max response, negative = inhibition, usual class: inhibitors. actives 3.5% (n = 310,000); active means well fitted inhibition curve with a large enough effect; inconclusive means small, poorly fitted or top-dose-only effect, or another doubt; inactive means no such curve, though single readings can be large or run the other way;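 further: the enzyme is Sfp with the accession as filed and its product quenches rhodamine fluorescence; potency means the concentration at half of the fitted maximal effect; 0% = enzyme reaction without inhibitor and -100% = no enzyme wells; top concentration of the series not given in the record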
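Buffer: 50 mM Hepes-Na pH 7.6, 10 mM MgCl2, 0.01% Nonidet P-40, 0.01% BSA. Enzyme 15 nM, pre-exposed to compound 15 min; substrates then added and fluorescence change tracked over 30 min.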
ClpP mod: qHTS Assay for Activators of ClpP; purified B. subtilis ClpP, FRET peptide cleavage, 20 min; Potency, µM (top dose mostly 57.5 µM), for the others: at the top dose activity change, negative = active; actives 1.9% (n = 340,000); ATP-dependent Clp protease proteolytic subunit (Bacillus subtilis (strain 168)), P80244; AID 651965, 2013; active = well fitted falling curve with a large enough effect; inconclusive = small, poorly fitted or top-dose-only effect; inactive = no such curve, though single readings can be large or run the other way; further: potency means the concentration at half of the fitted maximal effect; the source files actives as falling curves though it sought activators and does not explain the sign; nearly all actives have a fitted effect of over 65% in size; many hits overshoot -100%
Target sequence (P80244 whole entry, looked up): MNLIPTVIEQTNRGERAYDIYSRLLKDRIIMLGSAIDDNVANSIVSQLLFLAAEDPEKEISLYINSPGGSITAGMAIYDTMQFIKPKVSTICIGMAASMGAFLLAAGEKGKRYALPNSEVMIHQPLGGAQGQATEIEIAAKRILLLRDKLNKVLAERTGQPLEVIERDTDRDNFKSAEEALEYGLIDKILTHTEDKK
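FRET quenching reversal measured ClpP activation: 10 microg/mL B. subtilis ClpP at pH 8 with the FRET-FV decapeptide, read at 430 nm after 320 nm excitation. The 20-min minus 0-min signal was scaled between DMSO/no-enzyme wells and ADEP (5.8 microM final).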
D2 potentiator: human D2 receptor positive allosteric modulation; P14416; DiscoveRx D2 beta-arrestin cells, luminescence, 90 min; 100% = 57 uM dopamine signal; potentiation, % (test concentration not listed); actives 0.23% (n = 360,000); AID 624464; active = potentiation of 50% or more; inconclusive = 30% to 50%; inactive = 30% or less;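 further: compound concentration not given in the record; tested on top of an EC20 dose of dopamine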
Target sequence (P14416 whole entry, looked up): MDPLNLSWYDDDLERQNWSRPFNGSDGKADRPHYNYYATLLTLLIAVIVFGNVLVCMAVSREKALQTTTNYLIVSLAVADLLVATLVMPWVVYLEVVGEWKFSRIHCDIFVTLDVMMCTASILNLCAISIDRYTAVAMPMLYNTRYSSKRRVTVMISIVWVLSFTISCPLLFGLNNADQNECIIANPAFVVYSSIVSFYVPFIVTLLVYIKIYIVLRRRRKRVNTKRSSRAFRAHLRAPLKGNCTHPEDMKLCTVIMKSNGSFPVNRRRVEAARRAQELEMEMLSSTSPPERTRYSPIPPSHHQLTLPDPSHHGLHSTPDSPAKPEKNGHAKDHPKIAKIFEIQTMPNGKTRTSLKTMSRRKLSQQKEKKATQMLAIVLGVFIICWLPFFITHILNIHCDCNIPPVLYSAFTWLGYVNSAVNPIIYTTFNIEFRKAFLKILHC
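PathHunter D2 cells, attached overnight at 37 deg C, received compound in DMSO plus dopamine at EC20 (50 nM final) for 90 min at 37 deg C. Beta-arrestin recruitment was read as luminescence after 1 h with detection reagent at ambient temperature.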
Menin-MLL FL inh: inhibitors of human menin-MLL interaction, wild-type MLL peptide; Fluorescence polarization, fluorescein-MLL peptide displacement from menin; FP activity change, % at 61.4 µM; 290,000 tested, under 10 active; AID 1766; inconclusive = falling polarisation curve, or a change in total fluorescence; inactive = total fluorescence flat and polarisation flat or rising; no compound was filed as active; the % refers to the polarisation; negative = inhibition;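 further: % of control where 0% means no effect; inhibitors lower the polarisation; unlabelled MLL peptide was the positive control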
gsp ag: activates gsp, the McCune-Albright syndrome mutation | gsp mutant cells, cAMP HTRF, 30 min; control for the full effect not named in the record | Potency, µM (highest dose often 76.9 µM), without a hit: top-dose activation (cAMP increase), hits mostly activators | actives 0.13% (n = 340,000) | AID 624287; active = well fitted activation curve with a large enough effect; inconclusive = small, poorly fitted or top-dose-only effect, or another doubt; inactive = no such curve, though single readings can be large or run the other way; cell line not stated here;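 further: phosphodiesterase inhibitor Ro 20-1724 added with compounds to block cAMP breakdown; potency means the concentration at half of the fitted maximal effect; nearly all actives have a fitted effect of over 60% in size; about a fifth of the inactives were tested at one dose only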
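Cells in DMEM/10% FBS with G418 were pretreated with compounds in DMSO plus […] (300 uM stock) for 30 min at 37C. cAMP was measured by HTRF (cAMP-d2 plus anti-cAMP antibody-K) after 30 min at room temperature.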
TRPV1 PAM: potentiators of human vanilloid receptor 1 (TRPV1). actives 0.02% (n = 320,000). TRPV1-expressing cells, Fluo-8 calcium influx, capsaicin EC20 potentiation; host cell line not named in the record; control for the full effect not named in the record. Q8NER1. AID 540277. potentiation, % at 8.33 µM; active means potentiation above 80%; inconclusive means 30% to 80%; inactive means below 30%; further: 0% is about no effect
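Fluo-8 calcium influx in TRPV1-expressing cells, kinetic read (ex 480/em 520 nm). Compound added and read 3 min for agonist activity, followed by capsaicin at EC20 final and 2 min further read for enhancement.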
gsp antag: gsp mutant antagonism. Potency, µM (titrated, usually from 76.9 µM), for the others: top-dose activity change, negative = inhibition, actives largely listed as inhibitors. gsp-mutant cells, cAMP HTRF, 30 min; control for the full effect not named in the record. actives 0.4% (n = 340,000); active = falling curve of any shape with a large fitted effect; inconclusive = falling curve, mostly with a smaller effect; inactive = flat or rising curve; cell line not stated here;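 further: intracellular cAMP measured with PDE inhibitor Ro 20-1724 present during compound exposure; potency means the concentration at half of the fitted maximal effect; on the % scale 0 is the no-effect control and ±100 the full control effect; nearly all actives have a fitted effect of over 65% in size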
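HTRF cAMP measurement after 30 min RT detection following 30 min, 37C compound treatment alongside […] (added as 300 uM solution) in G418-selected cells seeded at 2000/well and grown 16–24 h.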
The depositor's hits bear a star; ? = inconclusive; / = not tested or not shown; [ ] = another dose, or the depositor's remark.

SMILES	Sfp inh	ClpP mod	D2 potentiator	Menin-MLL FL inh	gsp ag	TRPV1 PAM	gsp antag
CN(C(=O)c1ccccc1C(=O)OCC(=O)c1ccc(F)cc1)c1ccccc1	/	1.6%	-8	/	-12%	-9	-7%
CC(=O)c1cc(C(=O)Nc2ccc(C(=O)O)cc2)oc1C	16%	-1.3%	-6	-1.9	27%	14	-5%
O=C(Nc1cccc(S(=O)(=O)N2CCOCC2)c1)c1c2c(nc3ccccc13)CCC2	-11%	-1.3%	-23	3.2	17%	-3	-10%
COc1ccc(NS(=O)(=O)c2cccc(C(=O)N/N=C/c3cccs3)c2)cc1	6%	-9.5%	-7	2.0	-58%[inhibitor]	14	-7%
CC(OC(=O)c1ccc(O)cc1)C(=O)Nc1cc(C(F)(F)F)ccc1Cl (stereo unspecified)	19%	/	-4	-0.5	-20%[15.4 µM]	-1	?
C/C(=N\Nc1ccc(S(=O)(=O)N2CCCCC2)cn1)c1cccc(Br)c1	/	0.3%	-3	/	?	-5	-6%
CC(=O)c1cccc(N(CC(=O)NCCc2ccccc2)C(=O)c2csnn2)c1	5%	/	-5	-1.0	28%	1	-1%
CCOC(=O)c1c(C)[nH]c(C)c1S(=O)(=O)N1CCOCC1	22%	0.7%	-1	-1.4	3%	1	9%
Cc1ccn2c(=O)c(NC(=O)c3cccc4ccccc34)c(C)nc2c1	/	-7.0%	-2	/	-1%	5	7%
CNc1nc(C)c(C#N)cc1C(C)=O	21%	-13%	0	0.7	14%	-6	17%
CC(=O)N(c1cccc(C)c1)C1SC(=O)N(c2ccccc2)C1=O (stereo unspecified)	-2%	0.7%	-3	-0.2	-9%	7	-8%
CN(Cc1nc(-c2ccccn2)no1)S(=O)(=O)c1ccc(Cl)cc1	10%	-0.9%	-2	8.4	22%	-6	7%
Cc1nnc(NCc2ccccc2)c2ccccc12	16%	-3.4%	-7	-0.5	13%[15.4 µM]	-8	-2%
c1ccc2c(c1)CC(N1CCCCC1)c1ccccc1S2 (stereo unspecified)	/	1.5%	-7	/	-42%[inhibitor]	/	9%
COc1ccc(NC(=O)c2cccc(S(=O)(=O)N3CCOCC3)c2)cc1	11%	/	-2	/	0%[15.4 µM]	-5	10%
COc1cc(OC)cc(OC(=O)C2CCN(S(=O)(=O)c3ccc(OC)c(OC)c3)CC2)c1	/	0.7%	-23	/	?	-4	0%
CCOC(=O)C1=C(C)N(CC)C(=S)NC1c1ccc(Cl)cc1 (stereo unspecified)	-5%	-2.4%	-21	-1.9	-7%	0	-11%
NC(=O)CC(NC(=O)Cc1ccc(Br)cc1)c1ccc(NC2CCCC2)c([N+](=O)[O-])c1 (stereo unspecified)	-15%	-1.3%	-8	1.9	/	-4	8%
Nn1c(SCc2ccccc2)nnc1-c1ccco1	16%	-0.1%	-3	3.2	-14%	4	8%
COC(=O)c1ccc(N2CCN(C)CC2)c(NC(=O)c2ccc(Br)o2)c1	18%	0.3%	-8	/	?	-12	17%
Cc1cc(C)c2cc(CN(Cc3ccco3)C(=S)NCC3CCCO3)c(=O)[nH]c2c1 (stereo unspecified)	20µM*	-3.6%	-2	17	-8%	-3	-21%
CCCC[n+]1c(-c2ccc(Cl)cc2Cl)csc1Nc1ccccc1	-2%	1.1%	-9	-0.3	-6%	12	1%
COc1ccc(CNC(=O)[C@H](CCSC)NC(=O)N2CCn3c2nc2ccccc23)cc1	10%	0.2%	-5	7.7	21%	26	0%
CC(=O)c1cccc(NC(=O)Cn2c(=O)oc3cc(S(=O)(=O)N4CCCC4)ccc32)c1	6%	-1.3%	-3	6.2	1%[15.4 µM]	-5	-16%
O=C(CSCc1ccc([N+](=O)[O-])cc1)NC1CCCCCC1	-14%	/	-2	4.4	8%	-17	2%
SMILES	Sfp inh	ClpP mod	D2 potentiator	Menin-MLL FL inh	gsp ag	TRPV1 PAM	gsp antag
COc1ccc(NC(=O)Cn2nc(Cc3cccnc3)c3ccccc3c2=O)cc1OC	11%	-0.2%	-5	1.9	?	?	-10%
COc1cc(OC)cc(-n2nnnc2SCC(=O)Nc2ccc(C(C)=O)cc2)c1	11%	0.2%	2	-0.9	21%	3	22%
COc1ccccc1Nc1nc(-c2c(C)[nH]c3ccccc23)cs1	-15%	2.4%	0	4.6	0%	3	5%
COc1ccccc1[N+](=O)[O-]	/	-0.4%	-9	/	/	1	2%
CC(=O)NC(=S)NNC(=O)C(c1ccccc1)c1ccccc1	3%	-1.0%	-20	-1.2	-94%[inhibitor]	2	-2%
CC1CN(C(=O)c2ccccc2OCc2ccccc2Cl)CC(C)O1 (stereo unspecified)	/	1.5%	-1	/	-34%[inhibitor]	-20	0%
Fc1ccccc1N1CCN(c2ncnc3nc[nH]c23)CC1	2%	/	-4	-2.6	17%[15.4 µM]	-2	1%
CCc1cccc(C)c1NC(=O)C(c1ccc(O)cc1)N1CCC1=O (stereo unspecified)	11%	0.5%	1	2.3	-11%	6	-7%
Cc1ccc(CS(=O)Cc2ccc(C(=O)NCc3ccc(OC(C)C)cc3)o2)cc1 (stereo unspecified)	-4%	-0.9%	-6	0.6	16%	-1	6%
CC(=O)NC1C(Oc2cccc(C)c2)OC2COC(c3ccco3)OC2C1O (stereo unspecified)	16%	1.8%	-15	2.6	4%	20	14%
O=C(Nc1ccc(Cl)cc1)C1=Cc2cc(Cl)ccc2OC1	-13%	-5.4%	-8	0.3	-23%	-2	?
COc1ccc(-n2c(SCC(=O)NC3CC3)nc3ccccc3c2=O)cc1OC	/	0.9%	1	/	-5%	11	6%
CC1OC(OC2C(CO)OC(OCC3OC(OC(=O)[C@@]45CCC(C)(C)C[C@@H]4C4=CC[C@@H]6[C@@]7(C)CCC(OC8OCC(O)C(O)C8OC8OC(C)C(O)C(O)C8O)[C@@](C)(CO)C7CC[C@@]6(C)[C@]4(C)CC5)C(O)C(O)C3O)C(O)C2O)C(O)C(O)C1O (stereo partly specified)	/	1.2%	-2	/	/	/	40µM*
CC(OC(=O)CN1C(=O)NC2(CCCC2)C1=O)C(=O)Nc1cccc(Cl)c1 (stereo unspecified)	11%	-0.8%	9	/	8%[15.4 µM]	14	8%
CCOC(=O)c1ccc(NC(=O)C2COc3ccccc3O2)cc1 (stereo unspecified)	6%	-0.4%	-3	2.0	-22%[15.4 µM]	3	-7%
CC(C)N(C(=O)Cn1c(SCC(=O)N2CCN(c3ccccc3)CC2)nc2ccccc21)C(C)C	10%	-1.7%	-4	5.4	12%	-2	2%
COc1ccc(-c2cc3c(nn2)-c2ccccc2C3=O)cc1	11%	/	-57	-3.8	-1%[15.4 µM]	-12	/
Cc1c(F)cccc1NS(=O)(=O)c1ccc2c(c1)n(C)c(=O)c(=O)n2C	14%	/	4	0.4	-47%[15.4 µM]	4	-19%
O=c1cnnc(Nc2ccccc2)[nH]1	25%	/	3	-2.6	-5%	6	-8%
O=C(Cc1ccccc1[N+](=O)[O-])NCCCc1ccccc1	9%	0.6%	-11	1.4	0%[15.4 µM]	-7	11%
COc1ccc(NC2CCCN(C(=O)CN3C(=O)c4ccccc4C3=O)C2)cc1OC (stereo unspecified)	0%	1.1%	-7	/	-51%[inhibitor]	22	?
CCOC(CNC(=O)c1cccn2c(=O)c3cc(Cl)ccc3nc12)OCC	-3%	-0.6%	-6	-22	19%	-2	-19%
Cc1ccc(S(=O)(=O)N2CC=C(c3c(C)n(C)c4ccccc34)CC2)cc1	-7%	-3.6%	-5	2.2	4%	-12	16%
CN(Cc1ccccc1)Cc1nc2c([nH]1)c(=O)[nH]c(=O)n2C	-21%	-1.9%	-1	3.5	19%	-11	4%
Clc1ccc(C2=NCCn3nc4ccccc4c32)cc1	/	-3.0%	0	/	-64%	-20	0%
SMILES	Sfp inh	ClpP mod	D2 potentiator	Menin-MLL FL inh	gsp ag	TRPV1 PAM	gsp antag
COc1cccc(NC(=O)COC(=O)c2c(C)noc2C)c1	/	1.0%	-3	/	-15%	-5	2%
CNCC(O)Cn1c(C(F)(F)F)nc2ccccc21 (stereo unspecified)	14%	-2.2%	-4	2.3	-35%[inhibitor]	-2	4%
COc1cc2c(cc1OC)-c1cc(NC3CC3)nc(=O)n1CC2	12%	-29%	-49	3.4	33%	-3	-3%
Nc1ncnc(Nc2cc(Cl)cc(Cl)c2)c1[N+](=O)[O-]	12%	-2.5%	-8	8.1	2%	-4	8%
Cc1ccc(C(=O)Cn2ncsc2=N)cc1	-15%	51%	-11	1.4	1%	-4	1%
Cc1cccc(NC(=O)C2CC(=O)OC23CCCC3)c1 (stereo unspecified)	-6%	1.3%	-23	-2.0	7%	-2	10%
N#C/C(=C(/O)COC(=O)CCc1ccc(S(=O)(=O)N2CCOCC2)cc1)c1nc2ccccc2[nH]1	17%	-8.7%	1	?	-7%	4	-4%
C/C(=N\NC(=O)c1ccc(N/N=C(\C)c2ccncc2)cc1)c1ccncc1	12%	/	6	-9.3	?	0	-22%
CCc1nc(Nc2ccccc2)c2oc3ccccc3c2n1	-6%	2.0%	-8	3.5	0%	-7	-19%
CC(=O)N(C1CC(C)C(C#N)(C#N)C1(C#N)C#N)N(C)C (stereo unspecified)	10µM*	/	-23	0.0	4%[15.4 µM]	-1	11%
CCN(CC)CCCNC(=O)CNC(=S)N(CCCN1CCOCC1)Cc1cccs1	10%	/	0	5.7	-19%[15.4 µM]	2	6%
CCN(CC)CCCN=Cc1c(O)n(-c2ccccc2C)c(=O)c2ccccc12	16%	-30%	-15	3.1	36%	7	-12%
CCNC(=O)NC(=O)CSc1nc2ccccc2n1CC(C)C	15%	-2.7%	13	4.1	-16%	25	-5%
O=[N+]([O-])c1ccc(CN2CC(N3CCN(CC4CC4)CC3)CS2(=O)=O)cc1 (stereo unspecified)	/	-1.5%	2	/	-8%	/	/

2 entries drawn at random from the list so far, as already listed:
SMILES	Sfp inh	ClpP mod	D2 potentiator	Menin-MLL FL inh	gsp ag	TRPV1 PAM	gsp antag
N#C/C(=C(/O)COC(=O)CCc1ccc(S(=O)(=O)N2CCOCC2)cc1)c1nc2ccccc2[nH]1	17%	-8.7%	1	?	-7%	4	-4%
CCN(CC)CCCNC(=O)CNC(=S)N(CCCN1CCOCC1)Cc1cccs1	10%	/	0	5.7	-19%[15.4 µM]	2	6%

Screens: PubChem BioAssay, National Center for Advancing Translational Sciences (NCATS)
